# H5N1 antiviral = MDCK cell protection from H5N1 avian flu | cytopathic effect, luminescence, 72 h; stronger effect = higher value; no value below 0 was filed and about half of the inactive calls have no number; reference of the scale not given here | inhibition, % at 50 µM | 0.07% of 96,000 active | AID 740, 2007; in the data active = inhibition above about 25%
# Numbers without * were called inactive; i = inactive. These rows are one share of the data; the hit share may differ from the screen's.
SMILES,H5N1 antiviral
Cc1cc(OC(=O)c2ccc(Cl)cc2Cl)nc(C)n1,0.2
CCN(CC)CCNC(=O)c1c(O)c2cc(OC)c(OC)cc2[nH]c1=O,i
CCOc1ccc(-n2nc(C(=O)NCCOC)c3ccccc3c2=O)cc1,i
CCOC(=O)C(CC)(CC)/C(C)=N/NC(=O)CC#N,0.5
COc1ccc(-c2cc3n(n2)CCc2nc4ccccc4n2-3)cc1,0.5
CC(=O)N(Cc1ccc(F)cc1)C1=C(NCc2ccccc2)C(=O)c2ccccc2C1=O,i
O=C(CN1CCCC1)Nc1ccc(Oc2ccc(NC(=O)CN3CCCC3)cc2)cc1,1.4
Cc1ccc(S(=O)(=O)C2(C(=O)N3CCCCCC3)CC2)cc1,i
NS(=O)(=O)c1ccc(CCNC(=O)c2cccnc2)cc1,i
COC(=O)c1ccc(Cl)c(NC(=O)CSc2ncn[nH]2)c1,2.2
Cc1nc2nc(-c3ccc(Cl)cc3)cn2nc1C,i
O=S(=O)(Cc1ccccc1)NCc1ccccn1,i
Cc1ccc2cc(C)c3nnc(SCC(=O)N4CCCc5ccccc54)n3c2c1C,4.3
O=[N+]([O-])c1cc2c(cc1/C=N/n1c(-c3ccccc3)n[nH]c1=S)OCO2,0.1
COC(=O)C1=C(C(=O)c2ccccc2)C(c2ccc(O)c(OC)c2)n2nnnc2N1 (stereo unspecified),0.5
CCCOC(=O)c1[nH]c2c(c1C)C(=O)CC(c1cccs1)C2 (stereo unspecified),i
O=C(Cc1ccc(Br)cc1)N1CCN(Cc2ccccc2)CC1,i
Cc1ccc(C(=O)NCC(=O)OCC(=O)c2ccc3c(c2)OCCO3)cc1C,i
Cc1c(Cl)c([N+](=O)[O-])nn1Cc1ccc(C(=O)N/N=C\c2cc(Cl)ccc2O)o1,i
C=CCSC1=Nc2sccc2C2=NC(=O)CN12,1.1
CC(C)CCn1c(Oc2ccc(Cl)cc2)nc2c1c(=O)n(C)c(=O)n2C,i
CCn1nnnc1SCC(=O)NC1CCCC1,i
C/C(=N\NC(=O)CN1CCOCC1)C(C)(C)C,i
Cc1ccc(OCC(=O)Nn2cnc3ccccc32)cc1,i
CCCCNC(=O)c1sc(=S)n2c1[nH]c(=O)c1ccccc12,0.8
CCc1cccc(C)c1NC(=O)c1cc(C)oc1C,0.3
Cc1cc(NC(=O)c2cc3ccccc3o2)cc(C)c1OCC(=O)N1CCOCC1,i
Cc1ccc2nc(-c3ccccc3)cc(C(=O)N3CCc4ccccc4C3)c2c1,4.4
COc1cccc(C(=O)NC2=NCCS2)c1OC,0.7
O=S(=O)(NCCCCCNS(=O)(=O)c1ccccc1)c1ccccc1,1.3
O=C(NCC(F)(F)F)Nc1nnc(C(F)(F)F)s1,i
O=C(c1ccc(Cl)cc1Cl)C1(n2cncn2)Oc2ccccc2C1O (stereo unspecified),i
Cc1ccc(S(=O)(=O)N(CCC(=O)O)Cc2ccc(Cl)cc2)cc1,0.7
COC(=O)c1ccc(CSc2nc(-c3ccccc3)cs2)o1,i
O=S1(=O)CCC(N2CCOCC2)C1 (stereo unspecified),0.4
O=c1c2ccccc2nnn1CSc1nnc2sc3ccccc3n12,18
COc1ccc(OC)c(S(=O)(=O)N(C)CC(=O)N2CCN(c3ccc(F)cc3)CC2)c1,i
CCC(c1ccccc1)c1nc(-c2ccccn2)no1 (stereo unspecified),0.2
CCn1c(=O)c(C(=O)NCc2ccc(OC)c(OC)c2)c(O)c2ccccc21,0.3
Cc1nnc(SCc2ccc(F)cc2)s1,i
CCN(C(=O)CSc1nc2nc(C)cc(C)n2n1)c1cccc(C)c1,0.1
CCn1c(SCC(=O)N2CCCc3ccccc32)nnc1-c1ccco1,1.3
Cc1ccccc1CS(=O)(=O)Cc1ccc(C(=O)NCc2ccccn2)o1,1.3
Cn1c(Sc2ccc(Br)cc2)c(C=O)c2ccccc21,i
O=c1[nH]c2cc3c(cc2cc1CN(Cc1ccccc1)Cc1nnnn1Cc1ccco1)OCCO3,0.7
CCC(C(=O)Nc1ncccn1)(C(F)(F)F)C(F)(F)F,i
CC(=O)N(C)C1(c2nnnn2CCOC(=O)Nc2ccc(Cl)cc2)CCCCC1,i
CN1C(=O)CSC1=NCC12CC3CC(CC(C3)C1)C2,1.5
COc1ccccc1CN1C(=S)SC(C)(C)C1NO (stereo unspecified),1.9
Cc1cccc(NC(=O)/C(=C\c2ccco2)NC(=O)c2ccccc2)c1,i
C/C(=N\O)C(=O)NCc1ccncc1,i
N#Cc1nc(COc2ccc(Cl)cc2)oc1N1CCCC1,i
CCCn1c(SCC(=O)N2CCCCC2)nnc1-c1ccco1,i
Brc1ccc(-c2cn3nc4c(nc3n2)CCCC4)cc1,0.2
O=c1c2cnn(-c3ccccc3)c2nc(-c2ccco2)n1-c1ccccc1,0.6
C=COCCn1c(-c2nonc2N)nc2ccccc21,i
COc1cc(C2C(C#N)=C(N)OC3=C2C(=O)CC(C)(C)C3)c([N+](=O)[O-])cc1OC (stereo unspecified),i
Cc1ccc(N2CCN(C(=O)CNS(=O)(=O)c3ccc(Br)s3)CC2C)cc1 (stereo unspecified),8.8
CCCCc1ccc(C2C(C#N)=C(N)SC(N)=C2C#N)s1,i
CC1(C)Cc2ccccc2-c2nnc(-c3ccccc3)n21,i
# The list continues:
SMILES,H5N1 antiviral
O=C(Oc1ccccc1C(=O)N1CCOCC1)c1ccc(Br)cc1,i
COc1ccc(OC)c2[nH]c(=O)c(CCNC(=O)c3ccc(S(=O)(=O)N(C)C)cc3)cc12,1.6
c1ccc(-n2c(Cc3cn4ccsc4n3)nnc2N2CCOCC2)cc1,i
Cc1ccc(C=Nc2ccccc2C(N)=O)cc1,i
CN(c1ccccc1)S(=O)(=O)c1ccc(C(=O)Nc2nnc(-c3ccc(F)cc3)o2)cc1,0.8
O=C(Cc1c(O)c2ccccc2[nH]c1=O)NC1CCCCCC1,i
CC1CCCCN1C(=O)c1cc(-c2ccc(Cl)c(Cl)c2)on1 (stereo unspecified),i
CCOc1nonc1C(=N)/C(C(C)=O)=C(\C)O,i
Cn1c(=O)c2c(nc(N3CCOCC3)n2CCCNC2=NCCC2)n(C)c1=O,0.8
CN1CCN(C(=O)CSc2nc(-c3ccncc3)ccc2C#N)CC1,1.8
N#Cc1nc(Cc2ccccc2)oc1NCCc1ccccc1,i
COCCn1c(C(C)C)nc2oc3ccccc3c(=O)c2c1=O,3.1
O=C(NN1C(=O)C2C3C=CC(C4CC34)C2C1=O)c1ccc(Cl)cc1 (stereo unspecified),0.1
O=C(Nc1ccc2c(c1)OCCO2)C1CCN(c2nnnn2-c2ccccc2)CC1,i
O=C(Cn1cc(C(=S)N2CCOCC2)c2ccccc21)N1CCOCC1,0.3
CCOc1ccccc1NC(=O)C(CC(C)C)NC(=O)C1CCCCC1 (stereo unspecified),i
CC1CCCCN1S(=O)(=O)c1ccc(NC(=O)c2cccc(-n3cnnn3)c2)cc1 (stereo unspecified),2.7
Cc1cc2c(N3CCCCC3C)ncnc2s1 (stereo unspecified),0.9
O=C(c1ccc(Br)s1)N1CCCC1,1.4
CCNC(=O)c1cc2c(=O)n3cccc(C)c3nc2n(Cc2ccc(C)cc2)c1=N,3.2
COc1ccc(NC(=O)C2CCCN(c3c4c(nc5ncnn35)CCC4)C2)cc1 (stereo unspecified),i
COc1cccc(-c2nn(-c3ccccc3)cc2CO)c1,i
CSc1nnc2c(n1)OC(C)N(C(=O)c1ccccc1)c1ccccc1-2 (stereo unspecified),1.3
Cc1nonc1NC(=O)CSc1nc(C2CCCCC2)nc2ccccc12,1.8
O=C(NCc1ccccc1)C(Cc1ccccc1)N1C(=O)C2C3CCC(C3)C2C1=O (stereo unspecified),7.4
COc1ccc(-c2nnc(SCC(=O)Nc3ccc(C)cc3)n2C)cc1,i
CC(=O)N1CCN2C(=O)C1CCCC(=O)c1cc(C3CCCCC3)ccc12 (stereo unspecified),1.2
O=[N+]([O-])c1cccnc1N1CCC(c2cc(-c3cccc(C(F)(F)F)c3)n[nH]2)CC1,i
CN1CCN(CCc2nc3cc(NC(=O)COc4ccccc4)ccc3n2C)CC1,0.5
Cc1ccc(CNC(=O)c2csc3c2CCCCC3)cc1,i
Cc1ccc(C2c3c(oc4ccccc4c3=O)C(=O)N2CCCN2CCOCC2)o1 (stereo unspecified),1.3
NC(N)=N/N=C/c1ccc(OCc2ccccc2)cc1,i
Cc1ccc(C)c(CN2C(=O)C3CCCN3c3ccc(S(=O)(=O)N4CCOCC4)cc32)c1 (stereo unspecified),2.0
c1ccc2[nH]c(NC3=NCCC3)nc2c1,1.1
Cc1ccc(S(=O)(=O)N(CC(=O)N/N=C/c2ccco2)Cc2ccccc2)cc1,2.0
CCOc1ccccc1NC(=O)NC1CCN(CC(=O)Nc2ccc3c(c2)OCCO3)CC1,i

# By substructure, the entries above with a CF3 group.
SMILES,H5N1 antiviral
O=C(NCC(F)(F)F)Nc1nnc(C(F)(F)F)s1,i
CCC(C(=O)Nc1ncccn1)(C(F)(F)F)C(F)(F)F,i
O=[N+]([O-])c1cccnc1N1CCC(c2cc(-c3cccc(C(F)(F)F)c3)n[nH]2)CC1,i

# Returning to the listing; the 3 compounds before the break are reprinted first.
SMILES,H5N1 antiviral
c1ccc2[nH]c(NC3=NCCC3)nc2c1,1.1
Cc1ccc(S(=O)(=O)N(CC(=O)N/N=C/c2ccco2)Cc2ccccc2)cc1,2.0
CCOc1ccccc1NC(=O)NC1CCN(CC(=O)Nc2ccc3c(c2)OCCO3)CC1,i
CCCCOc1ccc(/C=C/C(=O)NCCc2nc3ccccc3[nH]2)cc1,i
CN(CCC(=O)Nc1ccc2c(c1)OCO2)Cc1ccccc1,i
Cc1ccc(N=Cc2ccc(O)cc2O)cc1F,i
COCCCNC(=O)CSC1=Nc2ccccc2C2=NC(Cc3c[nH]c4ccccc34)C(=O)N12 (stereo unspecified),0.8
O=[N+]([O-])c1ccc2c(c1)C(O)n1nc(-c3ccc(Cl)cc3Cl)nc1S2 (stereo unspecified),i
CN1C(=O)/C(=C\c2ccc(N3CCCCC3)o2)C(=O)NC1=S,2.2
Cc1ccc(N(CC(O)COCc2ccco2)S(=O)(=O)c2ccc(C)cc2)cc1 (stereo unspecified),0.7
O=C(COC(=O)Cn1cnc2ccccc21)NCCC1=CCCCC1,i
CC(C)CNC(=O)COc1ccc2c3c(c(=O)oc2c1)CCC3,0.2
CCN1CCCC1CNc1ncnc2c1[nH]c1ccc(F)cc12 (stereo unspecified),i
Cc1ccccc1OCc1nnc(SCC(=O)Nc2ccc3nc(SCC(=O)NC(C)(C)C)sc3c2)n1C,i
CCOc1ccc(NC(=O)CN(C)c2ccc(S(=O)(=O)N3CCOCC3)cn2)cc1OCC,i
COC(=O)C1(C)Nc2ccccc2C(=O)N1c1ccccc1C (stereo unspecified),i
CCOC(=O)N1CCN(C(=O)c2ccccc2N(C)S(C)(=O)=O)CC1,0.2
CCSCc1nnc(SCC(=O)Nc2nc3ccccc3s2)n1C,0.0
CCN(CC)CCCN1C(=O)C(O)=C(C(=O)c2sc(C)nc2C)C1c1ccco1 (stereo unspecified),i
CC(=O)c1c(C)n([O-])c2ccccc2[n+]1=O,i
Cc1ccc(-c2nnc(N3CCN(C(=O)CSc4ncn[nH]4)CC3)c3ccccc23)cc1,3.5
Nc1c(S(=O)(=O)c2ccccc2)c2nc3ccccc3nc2n1/N=C/c1cccc(O)c1,i
Nc1nc(CN2CCN(c3ccccn3)CC2)nc(Nc2ccc(Cl)cc2)n1,0.9
Clc1ccc(Oc2nc3ccccc3n3cccc23)cc1,0.6
Cc1ccc(S(=O)(=O)CNC(=S)c2cccc(C)c2)cc1,i
COc1ccccc1NC(=O)CS(=O)(=O)c1cccc2nsnc12,1.6
C=CCn1c(-c2csc(-c3ccccc3)n2)n[nH]c1=S,i
Cn1c(C(=O)NCc2ccccn2)cc2c(=O)n3ccccc3nc21,3.6
CC(C)COc1ccc(/C(=N/O)c2ccccc2)cc1,i
Cc1cc(C(=O)COC(=O)C2=NNC(=O)CC2)c(C)n1-c1cccc(C(F)(F)F)c1,i
O=P(Nc1ccccc1Cl)(c1ccccc1)c1nc2c(s1)CCCC2 (stereo unspecified),3.4
Cc1cc(Nc2ccccc2)nc(N2CCOCC2)n1,3.4
COc1ccc(Nc2cc(C(=O)NCCCN3CCN(C)CC3)c3ccccc3n2)cc1,2.3
COC(=O)c1oc2ccccc2c1NC(=O)CN1CCCC1,i
c1ccc2[nH]c(CSc3nccs3)nc2c1,0.9
c1ccc(COn2nnc3ccccc32)c(COn2nnc3ccccc32)c1,0.6
Cc1cccc(Nc2nc(N)nc(CN3CCC(C(N)=O)CC3)n2)c1C,0.3
Cc1cnc(NC(=O)CSc2nnc(-c3ccccc3)o2)s1,0.6
Cc1ccc(S(=O)(=O)N2Cc3ccccc3CC2C(=O)Nn2cnnc2)cc1 (stereo unspecified),2.8
N#CC1(c2ccccc2)CCCN1C(=O)c1ccc(Br)cc1 (stereo unspecified),0.5
COc1ccc(-c2cc(C)nc3nc(N)nn23)cc1,1.3
O=C(NC1CC2CCC1C2)c1ccc(CN2CCOCC2)cc1 (stereo unspecified),0.1
CC1=C(C(=O)OC(C)C)C(c2ccc(Br)s2)NC(=O)N1 (stereo unspecified),0.1
COc1ccc(CNCC(=O)N2CCC3(CC2)OCCO3)cc1,i

# Structural class, the compounds so far with bromine
SMILES,H5N1 antiviral
O=C(Cc1ccc(Br)cc1)N1CCN(Cc2ccccc2)CC1,i
Cn1c(Sc2ccc(Br)cc2)c(C=O)c2ccccc21,i
Brc1ccc(-c2cn3nc4c(nc3n2)CCCC4)cc1,0.2
Cc1ccc(N2CCN(C(=O)CNS(=O)(=O)c3ccc(Br)s3)CC2C)cc1 (stereo unspecified),8.8
O=C(Oc1ccccc1C(=O)N1CCOCC1)c1ccc(Br)cc1,i
O=C(c1ccc(Br)s1)N1CCCC1,1.4
N#CC1(c2ccccc2)CCCN1C(=O)c1ccc(Br)cc1 (stereo unspecified),0.5
CC1=C(C(=O)OC(C)C)C(c2ccc(Br)s2)NC(=O)N1 (stereo unspecified),0.1

# High-throughput results: PubChem BioAssay, SRMLSC
